ugtP null kill = compounds lethal to S. aureus RN4220 ugtP deletion mutant | OD600 growth, 16 h; some inactives read as strong as hits | growth inhibition, % (no concentration beside the values) | actives 0.54% (n = 330,000) | AID 1259309;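 active means z-score under -3 and OD600 up to 0.15 on both plates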;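 further: plate controls were untreated wells for no effect and antibiotic for full effect; wells of about 80 µL received 100 nL stock; the first replicate is given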
BJeLR lethal = BJeLR cell viability loss; BJeLR (HRASV12) viability, CellTiter-Glo ATP luminescence, 48 h; reference of the scale not given here; inhibition, % (concentration not given with the values); actives 0.17% (n = 300,000);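 active means replicate mean above 50%; inconclusive means above 50% but judged a plate artefact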;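 further: 50 nL library stock added to about 25 µL; numbers are from one replicate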
Bead autofluor = compound fluorescence in toxin protease inhibitor counterscreen; compound autofluorescence counterscreen, microsphere flow cytometry; stronger effect = higher value; fluorescence intensity (no concentration beside the values); actives 3.1% (n = 360,000);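 active means at least 3 SD above the mean of all compounds, about 16000 in these data; inconclusive means too few beads counted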;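 further: 100 nL of 1 mM stock went into each well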
PrP 5UTR inh = suppresses PrP 5' UTR mRNA reporter expression. cell-based PrP 5' UTR mRNA reporter, plate reader. AID 488862. inhibition, % (no concentration beside the values). actives 0.35% (n = 340,000);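 active means every replicate at 50% or more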;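 further: 0 = median of the neutral control wells; tested in H4 reporter cells; numbers are from one replicate; inactives centre near -14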
RN4220 kill = S. aureus RN4220 growth inhibition; AID 1259311; inhibition, % (concentration not given with the values); actives 0.33% (n = 330,000); OD600, 16 h;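 active means z-score of -3 or lower and OD600 up to 0.18 on both plates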;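 further: plate controls were untreated cells for no effect and reference antibiotic for full effect; stock transfer was 100 nL into about 80 µL; one replicate is shown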
Mtb hypoxia inh = Mtb hypoxia fluorescent reporter inhibition | M. tuberculosis hypoxia-regulated fluorescent reporter, fluorescence | fluorescence inhibition, % (concentration not given with the values) | actives 0.1% (n = 300,000) | AID 1159583;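 active means 35 to 45% if threefold the growth effect, above 45% if 1.5-fold the growth effect; inactive means the rest, general growth blockers included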;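 further: wells of about 50 µL received 100 nL stock; 0% = vehicle wells and 100% = reference inhibitor wells; whole bacteria with a GFP reporter of the hypoxia response; strong numbers were not always called active; many hits fall short of the cut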
Mtb hypoxia inh growth = second read-out of Mtb hypoxia inh, no call of its own (marks repeat the call); growth inhibition, %; measured here: M. tuberculosis growth (absorbance);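 0% = vehicle and 100% = reference antibiotic; read after six days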
The depositor's hits bear a star; ? = inconclusive; . = no result given. An unsorted share of the library; about 4% have a hit in one of these screens.

mol | PrP 5UTR inh | BJeLR lethal | Mtb hypoxia inh | Bead autofluor | ugtP null kill | RN4220 kill | Mtb hypoxia inh growth
CCN(CC)CCCN(Cc1cc2cc(OC)c(OC)cc2[nH]c1=O)C(=O)Nc1ccccc1 | -49 | -17 | -8 | 22160* | -2 | 0.8 | 4
CCOC(=O)C1CCCN(c2nc3ccccc3nc2C(C#N)C(=O)OC(C)C)C1 (stereo not drawn) | -21 | -23 | 3 | 2058 | -4 | 1.6 | 7
CCCn1c(SCC(=O)Nc2cc(C)on2)n[nH]c1=O | -30 | . | -2 | 3840 | 5 | 8.2 | 2
NC1=NC(=O)C2(COC(c3cccc([N+](=O)[O-])c3)OC2)S1 (stereo not drawn) | -7 | -5 | 7 | 2677 | 2 | 5.8 | 1
COc1ccc(-c2nc(N)nc(C(F)(F)F)c2-c2ccccc2OC)c(O)c1 | -17 | 8 | 5 | 4157 | 10 | 0.9 | 3
COc1ccc(N(CC(=O)NCCc2ccccc2)C(=O)CCC(=O)Nc2nccs2)cc1 | -18 | 8 | 5 | 3851 | 9 | 4.8 | -3
COC(=O)c1nc(N)sc1-c1ccc(OC)cc1 | -6 | -2 | . | 4179 | 5 | 2.2 | .
Cc1cccc(N2CCN(C(=O)c3cnn4c(C(F)F)cc(-c5ccccc5)nc34)CC2)c1C | -19 | 5 | 5 | 5813 | 13 | -0.1 | 5
CC(=O)c1ccc(NC(=O)CSc2nnc(Cc3cccn3C)n2-c2ccc(F)cc2)cc1 | 12 | -14 | . | 5718 | -8 | 2.0 | .
Cc1ccc(-c2[nH]nc3c2C(c2ccccc2OC(=O)N2CCOCC2)C(C#N)=C(N)O3)cc1 (stereo not drawn) | . | . | -6 | . | 1 | -1.0 | 3
O=C(Nc1cc(Cl)ccc1O)c1cc(-c2ccco2)on1 | -44 | -3 | 13 | 5368 | -8 | 6.4 | 8
COc1ccc(CN2CCN(C(=O)c3ccc(S(=O)(=O)NCc4ccco4)cc3)CC2)cc1 | -20 | . | 12 | 4061 | 11 | 0.4 | -1
COc1cc(OC)cc(-c2c(C#Cc3ccsc3)c3cc(-c4ccc(OC)c(F)c4)ccc3n2C)c1 | -10 | . | 10 | 3750 | 1 | 8.7 | 22
CCN1CCN(CC(O)COc2ccc(Cl)cc2)CC1 (stereo not drawn) | -17 | 2 | . | 2441 | . | . | .
COc1ccc(NC(=O)/C(C#N)=C/c2ccc(Sc3nncn3C)c([N+](=O)[O-])c2)cc1 | 21 | 1 | 1 | 4138 | 4 | -0.1 | 12
Clc1ccc(-c2nc(Cc3ccccc3Cl)no2)cc1 | -24 | -13 | . | 4790 | -3 | 2.4 | .
CCOC(=O)c1c(NC(=S)NCCc2ccccc2)sc2c1CC(C(C)C)OC2 (stereo not drawn) | -14 | 3 | -2 | 2545 | 8 | 5.5 | -12
O=C(NCCN1C(=O)S/C(=C\c2cccnc2)C1=O)c1cccc(OC(F)F)c1 | -13 | -4 | 10 | 2738 | 1 | 2.3 | 7
CC(C)(Sc1cc(C(C)(C)C)c(O)c(C(C)(C)C)c1)Sc1cc(C(C)(C)C)c(O)c(C(C)(C)C)c1 | 0 | 12 | . | 5759 | . | . | .
O=C1CC(Nc2ccccc2)C(=O)N1CCc1ccccc1 (stereo not drawn) | -5 | 6 | -5 | 4273 | 4 | 2.2 | 8
C(=N\n1cnnc1)/c1ccccc1OCCOc1ccccc1 | -23 | 2 | . | 3223 | . | . | .
O=C(CCNC(=O)Cn1ccc2ccccc2c1=O)NCC1CCCC1c1ccccc1 (stereo not drawn) | -7 | 1 | 0 | 3264 | 2 | 9.9 | 5
Cc1cc(C)c2oc(C(=O)Nc3ccc(S(=O)(=O)N4CCC(C)CC4)cc3)cc(=O)c2c1 | -6 | 3 | 10 | 1973 | 4 | 5.6 | -3
CCN(CC)C(=O)C(=O)N/N=C/c1cccs1 | -6 | -11 | . | 2472 | . | . | .
COc1cccc(C2/C(=C(\O)c3ccc4c(c3)OCCO4)C(=O)C(=O)N2CCCN2CCOCC2)c1OC (stereo not drawn) | -23 | 1 | 4 | 5637 | 9 | 1.9 | 1

Rewritten with each value named: entries from further up
> COc1ccc(N(CC(=O)NCCc2ccccc2)C(=O)CCC(=O)Nc2nccs2)cc1
- PrP 5UTR inh: -18
- BJeLR lethal: 8
- Mtb hypoxia inh: 5
- Bead autofluor: 3851
- ugtP null kill: 9
- RN4220 kill: 4.8
- Mtb hypoxia inh growth: -3
> COC(=O)c1nc(N)sc1-c1ccc(OC)cc1
- PrP 5UTR inh: -6
- BJeLR lethal: -2
- Mtb hypoxia inh: .
- Bead autofluor: 4179
- ugtP null kill: 5
- RN4220 kill: 2.2
- Mtb hypoxia inh growth: .

(continued)
mol | PrP 5UTR inh | BJeLR lethal | Mtb hypoxia inh | Bead autofluor | ugtP null kill | RN4220 kill | Mtb hypoxia inh growth
O=C(NCCCc1ccccc1)c1cccc([N+](=O)[O-])c1 | -12 | -13 | 14 | 2081 | -2 | 0.5 | 12
CCCCOc1ccc2c(c1)C(=O)c1cc(O)ccc1-2 | -39 | 1 | 2 | 4833 | 92* | 20 | 5
CN1C=CC=C/C1=C1\SC(=S)N(Cc2ccccc2)C1=O | -5 | 1 | 15 | 3330 | 10 | 2.8 | 2
C=CCn1c(=O)c(C=Nc2c(OC)cccc2[N+](=O)[O-])c(O)n(CCCC)c1=O | -1 | 0 | -16 | 2614 | 2 | 1.8 | -7
CCOc1ccc(NC(=O)CN2C(=O)CSc3ccc(S(=O)(=O)N4CCCC4)cc32)cc1 | -13 | -1 | 4 | 5548 | 9 | -2.7 | 4
CCNC(=O)COC(=O)c1[nH]c(C)c(C(=O)OC)c1C | -31 | 6 | -1 | 3427 | 0 | -0.2 | -5
CSc1ccc(-c2nnn(Cc3ccc(Br)cc3)n2)cc1 | -15 | -2 | . | 4275 | 8 | -1.6 | .
CC1CN(C(C)CO)C(=O)c2cccc(NS(=O)(=O)c3cn(C)cn3)c2OC1CN(C)Cc1ccc(-c2ccccc2)cc1 (stereo not drawn) | . | . | 17 | . | 1 | 6.2 | 9
CCOC(=O)C(C)(C)Sc1ncnc2nc[nH]c12 | -8 | -18 | 0 | 23381* | 7 | 2.8 | 0
O=C(COc1ccc(Cl)cc1)NCCSCc1ccccc1Cl | -16 | 6 | -4 | 2083 | -25 | -2.4 | -1
Cc1cccnc1NC(=O)c1cccc(S(=O)(=O)N2CCCC2)c1 | -2 | 6 | -15 | 6288 | -1 | 4.4 | 0
CC(C)c1nnc(NC(=O)c2cc3cc(Br)ccc3oc2=O)s1 | 7 | -5 | 10 | 4166 | 4 | 4.0 | 3
Cc1ccc(S(=O)(=O)NCCC(=O)OCC(=O)NC(=O)c2cccn2C)cc1 | -12 | 6 | 8 | 4941 | 3 | 1.2 | 16
COc1cc(OC)cc(C(=O)OCc2ccc([N+](=O)[O-])cc2)c1 | -22 | 2 | 7 | 4798 | 3 | 8.1 | 8
Cc1onc(-c2ccccc2Cl)c1C(=O)OCC(=O)N1CCN(c2ccccc2)CC1 | -9 | 3 | . | ? | . | . | .
COc1cc(C(=O)N/N=C/c2coc3ccc(Cl)cc3c2=O)ccc1O | -7 | 18 | . | 5609 | . | . | .
Cc1ncoc1C(=O)N1CCCC(C(=O)c2cccc3ccccc23)C1 (stereo not drawn) | -27 | -1 | -8 | 4260 | 15 | 3.6 | -6
Cc1ccc(NC(=O)COC(=O)c2c(-c3ccccc3)noc2C)c(C)c1 | 3 | . | -6 | 3874 | 4 | 3.5 | 16
Cc1ccc(-c2noc(C3CCCN(C(=O)c4ccc(Cl)cc4)C3)n2)o1 (stereo not drawn) | -16 | 1 | 6 | 4382 | 13 | -2.6 | 8
Cc1nn2c(-n3ccnc3C)c3c(nc2c1-c1ccccc1)CCC3 | -21 | 4 | 1 | 10476 | 4 | 2.2 | 0
COc1ccc(C2Nc3ccccc3C(=O)N2NC(C)=O)cc1OC (stereo not drawn) | -21 | 6 | 7 | 3956 | -3 | 2.2 | -1
OC(CN1CCOCC1)(c1ccccc1)c1ccccn1 (stereo not drawn) | -12 | 6 | 13 | 3710 | -1 | 0.7 | -3
Cn1cnnc1SCC(=O)Nc1ccc(F)cc1F | -16 | 1 | 10 | 3529 | 6 | 5.8 | 2
Cc1ccc(C(C)(O)CS(=O)(=O)Cc2ccccc2)cc1 (stereo not drawn) | -4 | 6 | 1 | 3925 | 13 | 4.3 | 6
CCOC(=O)C1=C(C)NC(=NC)SC1c1ccccc1 (stereo not drawn) | -21 | 1 | 3 | 4802 | 2 | 7.1 | -3

(next part)
mol | PrP 5UTR inh | BJeLR lethal | Mtb hypoxia inh | Bead autofluor | ugtP null kill | RN4220 kill | Mtb hypoxia inh growth
CN1CCN(c2ccc(NC(=O)c3cccc(OCc4ccccc4)c3)cc2)CC1 | -33 | 4 | . | 2101 | -2 | -6.2 | .
COc1cc(/C=N/Nc2ccc(C)cc2)cc(Br)c1O | -1 | -6 | . | 3485 | . | . | .
O=S(=O)(NC(=S)NC1CCCCC1)c1ccc(Br)cc1 | -21 | 0 | -6 | 4591 | -1 | 5.1 | 0
COc1ccc(C(=O)COC(=O)CCN2C(=O)C3CC=CCC3C2=O)c(OC)c1 (stereo not drawn) | -23 | . | 2 | ? | -1 | 0.5 | 2
COCCCNC(=S)NNC(=S)Nc1ccc(F)cc1F | -11 | 2 | -5 | 21111* | 3 | 2.9 | 5
COc1ccc2cc(Br)ccc2c1CC(=O)NC(C)(C)C | -13 | -2 | -1 | 2648 | -1 | -1.7 | 7
Cc1ccccc1C(=O)Nc1nc(-c2cccnc2)cs1 | -7 | -5 | 5 | 4250 | 11 | 4.1 | 6
Cc1ccc(C=NOC(=O)c2c(C)noc2-c2snnc2C)cc1 | . | . | -1 | . | 1 | -4.8 | 12
CCOc1ccc(N2Nc3n[nH]c(N)c3N2)cc1 | -28 | 3 | 7 | 10044 | 36 | 3.1 | 8
CCc1ccc(CNC(=O)c2ccc(OC)c(OC3CCN(C(C)C)CC3)c2)nc1 | -7 | 1 | -6 | 6284 | 7 | 4.6 | -1
Cc1ccc(N2CCN(CC(O)COc3cccc(C)c3)CC2)cc1 (stereo not drawn) | -5 | -3 | -5 | 3955 | 0 | 2.1 | 2
COc1ccc(CCNC(=O)c2oc3ccccc3c2C)cc1 | -23 | . | 5 | 4615 | 5 | 4.1 | 6
c1ccc2c(c1)CCN(c1nc3cc4c(cc3s1)OCO4)C2 | -78 | 5 | -5 | 4012 | 12 | 0.9 | -6
CCCNC(=O)c1onc(CSc2cccc(OC)c2)c1C(=O)NCCC | -41 | -9 | 2 | 4052 | 1 | 4.9 | 1
Cc1c(C=O)c2ccccc2n1CCOc1ccccc1 | -10 | -2 | 2 | 2684 | 3 | -2.4 | -2
Cc1cccc(C)c1NC(=O)C(C)c1ccc(-c2ccccc2)c(F)c1 (stereo not drawn) | -16 | 3 | 17 | 2946 | 23 | 9.2 | 8
CC(C)CCNC(=O)CN(Cc1ccc2c(c1)OCO2)C(=O)Cn1nnc(-c2cccs2)n1 | -15 | -6 | 6 | 9987 | -1 | -9.2 | 7
CC(=NNC(=O)c1sc(NS(=O)(=O)c2ccccc2)nc1C)c1ccccc1 | . | . | 7 | . | -5 | 4.6 | 6
O=C(O)c1ccc(NC(=O)c2ccc(Cl)cc2)c(NC(=O)c2ccc(Cl)cc2)c1 | -17 | -12 | 6 | 3380 | -14 | -10.0 | -3
CC1=C(C(=O)Nc2cccc(C(=O)N3CCN(c4cccc(C(F)(F)F)c4)CC3)c2)SCCO1 | -3 | -2 | 0 | 5824 | 3 | -3.6 | 7
Cc1cc(C)n2nc(C(=O)Oc3ccc4c(c3)OCO4)nc2n1 | -10 | 0 | 17 | 4176 | 11 | 5.0 | 4
CN(Cc1ccccc1)C(=O)c1ccccc1Br | -6 | 18 | 8 | 2160 | -2 | 5.7 | 16
COC(=O)c1ccccc1NC(=S)N1CCC(N2CCCCC2)CC1 | 3 | -10 | 1 | 3855 | 5 | 2.4 | -5
O=C(CSc1ccccc1C(=O)O)NCc1ccco1 | -14 | -11 | . | 3325 | 10 | 10 | .
COc1ccccc1/C=C(/CC(=O)NCc1ccc2c(c1)OCO2)c1nc2ccccc2s1 | -17 | -8 | 14 | 2098 | 9 | 3.2 | 11
COc1ccc(/C=N/Nc2ncnc3c2[nH]c2ccccc23)c(OC)c1OC | -4 | -1 | . | 1966 | . | . | .

Source: PubChem BioAssay (several laboratories)
